# FGF22 binding: shifts melting point of recombinant human FGF22. Q9HCT0. recombinant FGF22 thermal shift, SYPRO orange fluorescence; percent of sucrose octasulfate shift, DMSO zero. calls only at 9.99 µM. hit rate 1.5% among 340,000;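 active = melting point raised past a set limit in the mean and every replicate; three in four hits are not shown here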
# Target sequence (Q9HCT0 whole entry, looked up): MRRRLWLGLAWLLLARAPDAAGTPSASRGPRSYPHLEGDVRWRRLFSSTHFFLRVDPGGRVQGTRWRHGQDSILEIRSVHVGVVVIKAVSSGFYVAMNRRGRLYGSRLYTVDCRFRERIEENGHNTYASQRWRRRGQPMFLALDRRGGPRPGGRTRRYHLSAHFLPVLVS
# Calls only; i = inactive; + = active, no number.
Molecule | FGF22 binding
C[C@H]1CCCCO[C@H](CN(C)C(=O)Nc2ccc(C(F)(F)F)cc2)[C@@H](C)CN([C@@H](C)CO)C(=O)c2cc(NC(=O)c3ccccc3)ccc2O1 | i
C/C=C/c1ccccc1[C@@H]1[C@@H](C#N)N(C(=O)NC2CCCCC2)[C@H]1CO | i
COc1ccc(S(=O)(=O)Nc2ccc3c(c2)C(=O)N([C@@H](C)CO)C[C@H](C)[C@@H](CN(C)C(=O)NC2CCCCC2)OCCCC[C@@H](C)O3)cc1 | i
C[C@H](CO)N1C[C@H](C)[C@@H](CN(C)Cc2ccc(-c3ccccc3)cc2)Oc2ccc(NC(=O)Nc3ccc(C(F)(F)F)cc3)cc2C1=O | i
C[C@@H]1CN([C@@H](C)CO)C(=O)Cc2cc(NC(=O)Cc3cn(C)c4ccccc34)ccc2O[C@H]1CN(C)Cc1ccc(C(F)(F)F)cc1 | i
COCC(=O)Nc1ccc2c(c1)C(=O)N(C)C[C@@H](OC)[C@@H](C)CN(CC1CC1)[C@H](C)CO2 | i
O=C(CCN1CCCCC1)NCC[C@H]1CC[C@@H](NC(=O)c2ccc(F)cc2)[C@@H](CO)O1 | i
COCC(=O)N1CC2(C1)CN(Cc1cccc(F)c1)[C@@H](CO)c1c2c2ccc(OC)cc2n1C | i
CN(C)CC(=O)N[C@@H]1CC[C@@H](CCNC(=O)Nc2ccc(Cl)cc2)O[C@@H]1CO | i
C[C@@H]1CN([C@H](C)CO)C(=O)c2cc(NC(=O)C3CC3)ccc2O[C@@H]1CN(C)Cc1ccncc1 | i
COc1ccc(NC(=O)N2CC3(C2)CN(C(=O)c2cccnc2)[C@H](CO)c2[nH]c4cc(OC)ccc4c23)cc1 | i
COCC(=O)Nc1ccc2c(c1)C(=O)N(C)[C@@H]1CC[C@@H](CC(=O)NCCCN(C)C)O[C@H]1CO2 | i
CCNC(=O)C[C@@H]1C=C[C@@H](NS(=O)(=O)c2ccc(F)cc2)[C@H](CO)O1 | i
C[C@H]1CCCCO[C@H](CN(C)C(=O)Nc2ccc(F)cc2)[C@@H](C)CN([C@@H](C)CO)C(=O)c2cc(NC(=O)Nc3ccc(C(F)(F)F)cc3)ccc2O1 | +
C[C@H](O)C#Cc1ccc2c(c1)O[C@H](CN(C)C)[C@@H](C)CN([C@@H](C)CO)S2(=O)=O | i
CCN(C[C@H]1[C@H](c2ccc(-c3ccccc3)cc2)[C@H](CO)N1C(C)=O)C(C)=O | i
COc1ccc(S(=O)(=O)N(C)C[C@H]2Oc3c(NC(=O)C4CC4)cccc3C(=O)N([C@H](C)CO)C[C@H]2C)cc1 | i
C[C@@H]1CCCCO[C@H](CN(C)CC2CCCCC2)[C@H](C)CN([C@H](C)CO)C(=O)c2cc(NS(=O)(=O)c3ccc(F)cc3)ccc2O1 | i
C[C@@H]1CN([C@H](C)CO)S(=O)(=O)c2ccc(C3=CCCC3)cc2O[C@@H]1CN(C)CC1CCOCC1 | i
O=C(C[C@H]1CC[C@H]2[C@@H](COC[C@@H](O)CN2Cc2ccc(Cl)cc2)O1)NCc1cccc(F)c1 | i
COc1ccc(S(=O)(=O)N(C)C[C@@H]2Oc3ccc(NC(=O)CCCCCC(=O)Nc4ccccc4N)cc3C(=O)N([C@H](C)CO)C[C@H]2C)cc1 | i
CC(C)NC(=O)N1[C@H](CO)[C@@H]2c3ccccc3N(C)C[C@@H]21 | i
COc1ccc(S(=O)(=O)Nc2ccc3c(c2)CC(=O)N([C@@H](C)CO)C[C@H](C)[C@H](CN(C)S(C)(=O)=O)O3)cc1 | i
COCC(=O)Nc1ccc2c(c1)OC[C@@H](C)N(C(=O)NC(C)C)C[C@@H](C)[C@@H](OC)CN(C)C2=O | i
O=C(Cc1ccncc1)Nc1ccc2c(c1)[C@@H]1C[C@H](CC(=O)N3CCOCC3)O[C@@H](CO)[C@@H]1O2 | i
CCC(=O)N1C[C@H](O)COC[C@H]2O[C@@H](CC(=O)NCc3ccc(Oc4ccccc4)cc3)CC[C@@H]21 | i
C[C@@H]1CN([C@@H](C)CO)C(=O)c2cccc(NS(=O)(=O)c3ccccc3)c2O[C@@H]1CN(C)S(C)(=O)=O | i
COc1cccc(CN2CC3(CN(CC4CC4)C3)c3c([nH]c4cc(OC)ccc34)[C@H]2CO)c1 | i
C[C@@H]1CN([C@@H](C)CO)C(=O)c2cc(NC(=O)Nc3ccccc3)ccc2O[C@@H](C)CCCCO[C@@H]1CN(C)C(=O)c1ccccc1 | i
CC(=O)N(C)C[C@@H]1Oc2ncc(-c3ccc(C)cc3)cc2C(=O)N([C@@H](C)CO)C[C@H]1C | i

# FGF22 binding: what is marked active above.
Molecule | FGF22 binding
C[C@H]1CCCCO[C@H](CN(C)C(=O)Nc2ccc(F)cc2)[C@@H](C)CN([C@@H](C)CO)C(=O)c2cc(NC(=O)Nc3ccc(C(F)(F)F)cc3)ccc2O1 | +

# Arranged by number of heavy atoms (lowest first): some entries from above
Molecule | FGF22 binding
C/C=C/c1ccccc1[C@@H]1[C@@H](C#N)N(C(=O)NC2CCCCC2)[C@H]1CO | i
CCN(C[C@H]1[C@H](c2ccc(-c3ccccc3)cc2)[C@H](CO)N1C(C)=O)C(C)=O | i
CC(=O)N(C)C[C@@H]1Oc2ncc(-c3ccc(C)cc3)cc2C(=O)N([C@@H](C)CO)C[C@H]1C | i
C[C@@H]1CN([C@H](C)CO)S(=O)(=O)c2ccc(C3=CCCC3)cc2O[C@@H]1CN(C)CC1CCOCC1 | i
COc1ccc(S(=O)(=O)Nc2ccc3c(c2)C(=O)N([C@@H](C)CO)C[C@H](C)[C@@H](CN(C)C(=O)NC2CCCCC2)OCCCC[C@@H](C)O3)cc1 | i

# (further entries)
Molecule | FGF22 binding
Cc1ccc(S(=O)(=O)Nc2ccc3c(c2)C(=O)N([C@@H](C)CO)C[C@@H](C)[C@H](CN(C)C(=O)Nc2ccc(C(F)(F)F)cc2)OCCCC[C@@H](C)O3)cc1 | i
Cc1noc(C)c1NC(=O)N(C)C[C@H]1OCCCC[C@@H](C)Oc2ccc(NC(=O)Nc3cccc4ccccc34)cc2C(=O)N([C@H](C)CO)C[C@@H]1C | i
Cc1ccc2nc(-c3ccc(Cl)cc3)c(Cc3cccc(F)c3)n2c1 | i
O=C(Nc1cccc(F)c1)N1CCCCN2[C@H](C1)[C@@H](c1ccc(C#Cc3cccnc3)cc1)[C@@H]2CO | i
C[C@H](CO)N1C[C@H](C)[C@H](CN(C)S(=O)(=O)c2ccc(Cl)cc2)Oc2ccc(NC(=O)CCN3CCOCC3)cc2CC1=O | i
CO[C@@H]1CN(C)C(=O)c2ccc(NC(=O)NC(C)C)cc2OC[C@@H](C)N(S(C)(=O)=O)C[C@@H]1C | i
COc1ccccc1C#Cc1ccc([C@@H]2[C@H](CO)N3CCCCN(CCC(F)(F)F)C[C@@H]23)cc1 | i
COC(=O)N1C[C@H](OCc2ccc3c(c2)OCO3)[C@H]2C[C@@H]1c1ccccc1O2 | i
CO[C@@H]1CN(C)C(=O)c2ccc(NC(=O)c3cccc(Oc4ccccc4)c3)cc2OC[C@H](C)NC[C@@H]1C | i
COc1ccc(NC(=O)Nc2ccc3c(c2)[C@@H]2C[C@@H](CC(=O)NCc4ccccn4)O[C@@H](CO)[C@@H]2O3)cc1 | i
COc1cccc(S(=O)(=O)N[C@H]2CC[C@H](CCn3cc(-c4ccccn4)nn3)O[C@H]2CO)c1 | i
C/C=C/c1ccc2c(c1)O[C@@H](CN(C)C(=O)CC1CC1)[C@H](C)CN([C@@H](C)CO)S2(=O)=O | i
C[C@H]1CN([C@@H](C)CO)C(=O)CCCn2nncc2CO[C@@H]1CN(C)Cc1ccc2cccnc2c1 | i
Cc1ccc(S(=O)(=O)N2C[C@@H]3N[C@H](C2)[C@@H]3c2ccc(-c3cccc(C)c3)cc2)cc1 | i
CN1C(=O)c2cc(NC(=O)c3ccc(F)c(F)c3)ccc2OC[C@H]2O[C@@H](CC(=O)N[C@H]3CCN(Cc4ccccc4)C3)CC[C@@H]21 | i
COc1cccc(NC(=O)N[C@@H]2C=C[C@H](CC(=O)NCc3ccccn3)O[C@@H]2CO)c1 | i
CCCN(C)C[C@@H]1Oc2cc(-c3cccc(C#N)c3)ccc2S(=O)(=O)N([C@H](C)CO)C[C@@H]1C | i
CO[C@H]1CN(C)C(=O)c2cc(NC(=O)C3CCC3)ccc2OC[C@@H](C)N(Cc2cccnc2)C[C@H]1C | i
Cc1ccc(S(=O)(=O)NCC[C@H]2CC[C@H](NC(=O)Nc3cccc(F)c3)[C@@H](CO)O2)cc1 | i
COc1ccc(S(=O)(=O)N(C)C[C@@H]2OCCCC[C@H](C)Oc3ccc(NC(=O)Nc4ccc(C(F)(F)F)cc4)cc3C(=O)N([C@@H](C)CO)C[C@H]2C)cc1 | i
O=C(NC1CCCCC1)N[C@H]1C=C[C@H](CC(=O)N2CCOCC2)O[C@H]1CO | i
O=C(Nc1ccc(F)cc1)N[C@H]1C=C[C@H](CC(=O)N2CCOCC2)O[C@H]1CO | i
COc1ccc(CN(C)C[C@H]2OCCCC[C@@H](C)Oc3ccc(NS(=O)(=O)c4ccc(OC)cc4)cc3C(=O)N([C@@H](C)CO)C[C@@H]2C)cc1 | i
CCNC(=O)Nc1ccc2c(c1)C(=O)N(C)[C@@H]1CC[C@H](CC(=O)N[C@H](C)c3ccccc3)O[C@H]1CO2 | i
C[C@@H]1CN([C@H](C)CO)C(=O)c2cc(NC(=O)Nc3ccc4c(c3)OCO4)ccc2O[C@@H]1CN(C)S(=O)(=O)c1ccc(F)cc1 | i
C[C@@H]1CN([C@H](C)CO)C(=O)c2cccc(NC(=O)C3CCOCC3)c2O[C@@H]1CN(C)C(=O)Nc1ccc2c(c1)OCO2 | i
O=C(NCC[C@@H]1CC[C@@H](NC(=O)c2ccc3c(c2)OCO3)[C@@H](CO)O1)Nc1cc(F)ccc1F | i
C[C@@H]1CN([C@H](C)CO)C(=O)c2cc(NC(=O)CCN3CCOCC3)ccc2O[C@@H]1CN(C)Cc1ccc(-c2ccccc2)cc1 | i
CN1CCCCN2[C@H](CO)[C@H](c3ccc(-c4cccnc4)cc3)[C@H]2C1 | i
Cc1noc(C)c1NC(=O)Nc1ccc2c(c1)C(=O)N([C@H](C)CO)C[C@H](C)[C@@H](CN(C)C(=O)CCCN(C)C)OCCCC[C@H](C)O2 | i

# Other results
Molecule | FGF22 binding
O=C([C@@H]1[C@@H](CO)[C@@H]2Cn3c(ccc(-c4ccccc4)c3=O)[C@@H]2N1Cc1cocn1)N1CCCCC1 | i
O=C(Nc1cccc(F)c1)N[C@@H]1CC[C@H](CCNS(=O)(=O)c2cccc(Cl)c2)O[C@H]1CO | i
CCCNC(=O)N1[C@@H]2CNC[C@H]1C2c1ccc(-c2ccccc2F)cc1 (stereo partly drawn) | i
O=C(C1CC1)N1CCCCN2[C@H](CO)[C@@H](c3ccc(C#CC4(O)CCCC4)cc3)[C@H]2C1 | i
C[C@H]1CN([C@@H](C)CO)S(=O)(=O)c2ccc(C#Cc3ccccc3F)cc2O[C@H]1CN(C)CC1CC1 | i
CO[C@@H]1CN(C)C(=O)c2cc(NC(=O)c3nc4ccccc4s3)ccc2OC[C@H](C)NC[C@H]1C | i
C[C@@H]1CN([C@H](C)CO)S(=O)(=O)c2ccc(C#CC3CC3)cc2O[C@@H]1CN(C)C(=O)c1cccc(F)c1 | i
C[C@H]1CCCCO[C@H](CN(C)S(=O)(=O)c2ccccc2)[C@@H](C)CN([C@@H](C)CO)C(=O)c2cc(N(C)C)ccc2O1 | i
C[C@H]1CN([C@@H](C)CO)C(=O)c2cccc(NC(=O)Nc3ccc(C(F)(F)F)cc3)c2O[C@@H]1CN(C)Cc1ccc(C(=O)Nc2ccccc2N)cc1 | i
C[C@H]1CCCCO[C@H](CN(C)S(=O)(=O)c2cccs2)[C@@H](C)CN([C@@H](C)CO)C(=O)c2cc(NS(C)(=O)=O)ccc2O1 | i
C[C@H](CO)N1C[C@H](C)[C@@H](CN(C)CC2CCCCC2)OCCCC[C@H](C)Oc2ccc(NC(=O)Nc3ccc4c(c3)OCO4)cc2C1=O | i
C[C@@H]1CCCCO[C@@H](CN(C)C(=O)c2ccccc2)[C@@H](C)CN([C@H](C)CO)C(=O)c2cc(NC(=O)C3CCCCC3)ccc2O1 | i
C[C@H]1CN([C@@H](C)CO)C(=O)Cc2cc(NC(=O)C3CCCCC3)ccc2O[C@H]1CN(C)Cc1ccc(C(=O)Nc2ccccc2N)cc1 | i
COc1ccccc1CNC(=O)C[C@H]1C[C@H]2c3cc(NC(=O)C4CCOCC4)ccc3O[C@H]2[C@H](CO)O1 | i
C[C@H](CO)N1C[C@H](C)[C@H](CN(C)C)Oc2ncc(C#CC(C)(C)O)cc2C1=O | i
COc1cccc(NC(=O)C[C@H]2CC[C@@H]3[C@H](COc4ccc(NC(=O)C5CCOCC5)cc4C(=O)N3C)O2)c1 | i
C[C@@H]1CN([C@H](C)CO)S(=O)(=O)c2ccc(C#C[C@@H](C)O)cc2O[C@H]1CN(C)C(=O)CC1CC1 | i
COCC(=O)Nc1ccc2c(c1)C(=O)N(C)C[C@@H](OC)[C@H](C)CN(Cc1cccc(F)c1)[C@@H](C)CO2 | i
CO[C@@H](C(=O)N(C)C[C@H]1OCc2ccccc2-c2ccccc2C(=O)N([C@H](C)CO)C[C@H]1C)c1ccccc1 | i
Cc1cc(C(=O)Nc2cccc3c2O[C@H](CN(C)S(=O)(=O)c2ccc(Cl)cc2)[C@H](C)CN([C@H](C)CO)C3=O)n(C)n1 | i
COCCNC(=O)C[C@@H]1CC[C@@H]2[C@H](COc3ccc(NS(=O)(=O)c4ccc(Cl)cc4)cc3C(=O)N2C)O1 | i
O=C(N[C@@H]1CC[C@H](CCNC(=O)C2CCCCC2)O[C@@H]1CO)c1ccncc1 | i
O=C(C1CC1)N1C[C@H]2[C@@H](c3ccccc31)[C@@H](CO)N2C(=O)c1cccc(F)c1 | i

# Rewritten with each value named: part of the list above.
C[C@H](CO)N1C[C@H](C)[C@H](CN(C)C)Oc2ncc(C#CC(C)(C)O)cc2C1=O
  FGF22 binding: i
C[C@H]1CCCCO[C@H](CN(C)S(=O)(=O)c2cccs2)[C@@H](C)CN([C@@H](C)CO)C(=O)c2cc(NS(C)(=O)=O)ccc2O1
  FGF22 binding: i

# High-throughput results as filed in PubChem.

# The list is partial; rates above refer to the full screens.
